Mtb hypoxia rep – reduces hypoxia-regulated biosensor signal in M. tuberculosis | hit rate 0.1% among 300,000 | M. tuberculosis hypoxia-regulated fluorescent reporter, fluorescence | fluorescence inhibition, % (no concentration beside the values) | AID 1159583;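 active = 35 to 45% if threefold the growth effect, above 45% if 1.5-fold the growth effect; inactive = the rest, general growth blockers included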;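 note: wells of about 50 µL received 100 nL stock; 0% = vehicle wells and 100% = reference inhibitor wells; whole bacteria with a GFP reporter of the hypoxia response; strong numbers were not always called active; many hits fall short of the cut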
RN4220 kill – kills Staphylococcus aureus RN4220; S. aureus RN4220 growth, OD600, 16 h; inhibition, % (concentration not given with the values); hit rate 0.33% among 330,000;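 active = z-score of -3 or lower and OD600 up to 0.18 on both plates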;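 note: plate controls were untreated cells for no effect and reference antibiotic for full effect; stock transfer was 100 nL into about 80 µL; one replicate is shown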
Sa ugtP lethal – kills S. aureus RN4220 lacking UgtP; S. aureus RN4220 ugtP deletion, OD600 growth, 16 h; some inactives read as strong as hits; growth inhibition, % (test concentration not listed); hit rate 0.54% among 330,000;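 active = z-score under -3 and OD600 up to 0.15 on both plates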;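 note: plate controls were untreated wells for no effect and antibiotic for full effect; wells of about 80 µL received 100 nL stock; the first replicate is given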
PrP 5UTR inh – suppresses PrP 5' UTR mRNA reporter expression. hit rate 0.35% among 340,000. AID 488862. cell-based PrP 5' UTR mRNA reporter, plate reader. inhibition, % (no concentration beside the values);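 active = every replicate at 50% or more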;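 note: 0 = median of the neutral control wells; tested in H4 reporter cells; numbers are from one replicate; inactives centre near -14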
BJeLR viability – kills HRASV12-expressing BJeLR cells. BJeLR (HRASV12) viability, CellTiter-Glo ATP luminescence, 48 h; reference of the scale not given here. inhibition, % (test concentration not listed). hit rate 0.17% among 300,000;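 active = replicate mean above 50%; inconclusive = above 50% but judged a plate artefact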;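 note: 50 nL library stock added to about 25 µL; numbers are from one replicate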
Autofluor counter – flagged as autofluorescent in microsphere protease counterscreen; compound autofluorescence counterscreen, microsphere flow cytometry; active compounds read high; fluorescence intensity (test concentration not listed); hit rate 3.1% among 360,000;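 active = at least 3 SD above the mean of all compounds, about 16000 in these data; inconclusive = too few beads counted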;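 note: 100 nL of 1 mM stock went into each well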
Mtb hypoxia rep growth – further read-out of Mtb hypoxia rep, marked with its call; growth inhibition, %; measured here: M. tuberculosis growth (absorbance);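 0% = vehicle and 100% = reference antibiotic; read after six days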
Starred values were filed as active, the others as inactive; ? = inconclusive; · = no result given.

A first look, four compounds:
SMILES | Mtb hypoxia rep | Mtb hypoxia rep growth | RN4220 kill | Sa ugtP lethal | PrP 5UTR inh | BJeLR viability | Autofluor counter
CN(C)CCCNC(=S)N1CCC(c2nc3ccccc3[nH]2)CC1 | -10.0 | -6.4 | 3.5 | 10.4 | 5.5 | -3.8 | ·
Cc1ccc(NC(=O)c2cc(S(=O)(=O)N(C)C)ccc2N2CCCC2)cc1F | -2.1 | 0.4 | 1.6 | 6.0 | -14.9 | -1.5 | 5901
COCCNC(=O)c1ccccc1NS(=O)(=O)c1ccc(C)c([N+](=O)[O-])c1 | 8.5 | 12.7 | 6.3 | -2.1 | 1.8 | -1.2 | 2450
CCCC(CCC)C(=O)Nc1cccc(-c2cn3c(n2)SCC3)c1 | 5.7 | 3.4 | 10.2 | 3.4 | -94.3 | -6.1 | 5616

The list itself, from the first entry:
SMILES | Mtb hypoxia rep | Mtb hypoxia rep growth | RN4220 kill | Sa ugtP lethal | PrP 5UTR inh | BJeLR viability | Autofluor counter
CN(C)CCCNC(=S)N1CCC(c2nc3ccccc3[nH]2)CC1 | -10.0 | -6.4 | 3.5 | 10.4 | 5.5 | -3.8 | ·
Cc1ccc(NC(=O)c2cc(S(=O)(=O)N(C)C)ccc2N2CCCC2)cc1F | -2.1 | 0.4 | 1.6 | 6.0 | -14.9 | -1.5 | 5901
COCCNC(=O)c1ccccc1NS(=O)(=O)c1ccc(C)c([N+](=O)[O-])c1 | 8.5 | 12.7 | 6.3 | -2.1 | 1.8 | -1.2 | 2450
CCCC(CCC)C(=O)Nc1cccc(-c2cn3c(n2)SCC3)c1 | 5.7 | 3.4 | 10.2 | 3.4 | -94.3 | -6.1 | 5616
O=C(O)c1cc(NN=Cc2ccc3c(c2)OCCO3)ccc1Cl | 2.1 | 7.0 | -2.3 | -0.4 | · | · | ·
CC12CCC(C(N)C1=O)C2(C)C (stereo unspecified) | 13.1 | 6.1 | 5.7 | -2.5 | -19.4 | · | 3464
COC(=O)c1ccc(C(=O)Nc2nnc(-c3cccnc3)o2)cc1 | 9.9 | -5.4 | -4.9 | 3.7 | · | 0.8 | ·
CC(C)N1CC(COc2ccc(Cl)cc2Cl)OC1=O (stereo unspecified) | 1.5 | -4.9 | 8.1 | 8.1 | -13.4 | -2.6 | 3264
COc1ccc(N2CCN(C(=O)c3cc4c(s3)CCCCC4)CC2)cc1 | 1.5 | 7.2 | 5.7 | 2.6 | -3.8 | · | 3849
Cc1ccc2nc(NC(=O)CN3CCN(c4ccccn4)CC3)sc2c1 | 1.2 | 4.2 | -2.5 | 12.3 | -15.9 | -0.2 | 2872
CCOCCCNC(=O)C(c1ccc(C)cc1)N(Cc1cccs1)C(=O)c1ccccc1O (stereo unspecified) | 3.2 | 16.9 | 8.5 | -3.8 | 0.4 | -4.4 | 3785
Cc1ccc(-c2nn(-c3ccccc3)cc2C2SCC(=O)N2Cc2ccccc2)o1 (stereo unspecified) | 6.1 | 2.4 | -5.7 | 18.5 | -7.0 | -3.4 | 6305
COC(=O)[C@@H]1CCCN1C(=O)[C@@H](NC(=O)OC(C)(C)C)C(C)C | · | · | · | · | -21.0 | -15.7 | 4096
COc1ccc(CN2CCCC(N3CCN(c4cccc(Cl)c4)CC3)C2)cc1OC (stereo unspecified) | 10.0 | 8.0 | 3.7 | 13.0 | -13.7 | 2.0 | 3816
C[C@@]12C(=O)Nc3ccc(Cl)cc3C(=O)N1C1c3cc(Br)ccc3OCC1C2c1ccccc1 (stereo partly specified) | -16.0 | 3.1 | -7.1 | -3.1 | · | · | ·
CN(CC(=O)Nc1ccc(Cl)c(C(F)(F)F)c1)C(=O)c1cc(-c2ccncc2)nc2ccccc12 | 2.2 | 1.5 | -2.4 | -5.1 | -26.8 | -3.8 | 6291
Cc1ccc(S(=O)(=O)N(C)C)cc1NC(=O)CSc1ccc2c(c1)OCCO2 | 2.5 | 2.4 | 1.2 | -2.8 | -14.7 | 1.3 | 5547
CC(=O)c1cccc(NC(=O)COC(=O)COc2ccc(Cl)cc2)c1 | -4.3 | 2.9 | -0.8 | -0.7 | -24.6 | -8.7 | 2479
O=C(NNC(=O)c1c(F)cccc1F)c1sccc1-n1cccc1 | 13.6 | 6.3 | 4.8 | 1.1 | -15.6 | 9.0 | 4864
Cn1c(SCC(=O)c2ccccc2)nc2cccnc21 | · | · | 2.3 | 1.1 | 8.7 | 6.6 | 4155
Cc1cc(C)c(NC(=O)CSc2nnc(Cc3cccn3C)n2-c2ccc(F)cc2)c(C)c1 | 5.8 | 4.6 | 1.8 | 1.0 | -11.8 | -14.2 | 25100*
O=S(=O)(Nc1ccc(Cl)cc1)c1ccc(N2CCOCC2)c(NC(=S)NC2CC2)c1 | 3.0 | 3.0 | 10.5 | -0.3 | -16.8 | · | 4059
O=C(Nc1ccccc1)C1=C[C@@H](c2ccc3c(c2)OCO3)C[C@@H](OCCCCO)O1 | · | · | · | · | -40.4 | 6.2 | 4057
CCc1cccc(NC(=O)CCS(=O)(=O)c2ccc3c(c2)NC(=O)CO3)c1 | -1.1 | -3.6 | 2.4 | 1.4 | 7.8 | -6.7 | 5671
O=C(COC(=O)c1ccc(NS(=O)(=O)c2ccc(Br)s2)cc1)NC1CCCC1 | -1.8 | -6.8 | -3.0 | 6.1 | -16.4 | 6.6 | 3716
CCC(=O)N(Cc1cccs1)C1CCOC(C)(C)C1 (stereo unspecified) | · | · | 0.7 | 1.2 | -10.4 | · | 4544
CCOc1ccc(C(C)(N)C(=O)O)cc1 (stereo unspecified) | -0.4 | 4.9 | -1.5 | -3.9 | -0.6 | · | 22131*
O=C1C2ON(c3ccccc3)C(c3ccccn3)C2C(=O)N1c1ccc(Br)cc1 (stereo unspecified) | 18.2 | 1.9 | -13.8 | -5.7 | -11.1 | 1.3 | 2854
COCCCN(C(=S)NC(=O)C(C)(C)C)c1c(N)n(Cc2ccccc2)c(=O)[nH]c1=O | -6.7 | 0.2 | 2.7 | 3.5 | -15.4 | -13.5 | 3325
Cc1ccc(C(=O)/C=C/c2ccc3ncccc3c2)cc1 | 7.3 | 10.0 | 7.3 | 7.6 | -20.6 | 4.8 | 3779
Cc1ccc(C)c(OCCC(=O)OCC(=O)NCCNC(=O)COC(=O)CCOc2cc(C)ccc2C)c1 | 2.0 | 5.9 | 4.4 | -3.0 | -8.8 | -0.6 | 5530
NS(=O)(=O)c1cccc(NC(=O)COC(=O)c2cc(Cl)ccc2[N+](=O)[O-])c1 | -5.1 | 18.7 | 2.7 | -5.2 | -17.9 | -4.8 | 4211
Cc1c(C(=O)O)sc2nc(SCC(=O)Nc3ccc(S(=O)(=O)NCCCC(=O)O)cc3)[nH]c(=O)c12 | 13.4 | 13.8 | 3.0 | 8.0 | -35.7 | 2.1 | 2498
O=C(Cc1ccc([N+](=O)[O-])cc1)NNC(=O)c1ccc2c(c1)OCO2 | 15.9 | 2.4 | 2.1 | 15.1 | -14.6 | · | 5897
O=C(COc1ccccc1)Nc1ccncc1 | -3.2 | -17.7 | 6.9 | 9.2 | -14.9 | 4.1 | 4253
C=CCN1C(=O)C(O)(CC(=O)c2ccccn2)c2ccccc21 (stereo unspecified) | 1.0 | -2.0 | 8.8 | 10.3 | -26.9 | 6.2 | 4737
CC(C)OCCOc1ccc2oc(-c3ccco3)cc(=O)c2c1 | 13.5 | 8.0 | 4.8 | 3.4 | -40.0 | 3.8 | 3157
Clc1ccccc1CSC1=NCCN1 | 13.8 | 0.6 | 5.6 | 3.6 | -12.8 | 1.4 | 3822
CNC(=O)Oc1cc2c(cc1C(C)(C)C)CCC2 | 14.9 | 14.4 | 3.5 | 11.2 | -18.1 | · | 3825
N=C1C(c2ccccc2)=C(O)CN1CCO | 8.7 | 5.5 | 3.7 | -1.7 | -4.4 | -1.0 | 2056
O=C(Nc1ccc(-c2n[nH]c(=S)o2)cc1)c1ccccc1 | · | · | 10.6 | 0.8 | -15.2 | 1.6 | 4041
COc1ccc(C2/C=C\CN(C(=O)c3ccccc3)CC(=O)N2Cc2cccc(F)c2)cc1 (stereo unspecified) | 4.9 | -0.3 | 8.6 | 8.7 | -26.4 | · | 3758
COc1ccccc1NC(=O)CSc1nnc(CCC(=O)Nc2ccccc2F)n1C | 6.0 | 6.4 | -2.5 | 1.1 | · | 9.1 | 3538
Cc1ccc(C)c(SCC(=O)Nc2ccc(C)c(S(=O)(=O)N3CCOCC3)c2)c1 | 11.4 | 7.6 | 1.9 | -0.2 | -8.6 | · | 2981
COc1ccc(N2C(=NC(=O)c3ccc(Br)cc3)SC3CS(=O)(=O)CC32)cc1 (stereo unspecified) | -2.9 | -0.9 | 5.4 | -3.6 | -25.7 | · | 5363
Cc1cc(C)n(CCC(=O)N2CCCC(N3CCN(c4cccc(Cl)c4)CC3)C2)n1 (stereo unspecified) | 9.7 | 10.7 | 1.2 | 7.4 | 0.6 | -4.0 | 5938
CSc1oc(-c2ccc(F)cc2)nc1S(=O)(=O)c1ccc(F)cc1 | 0.8 | 0.5 | -2.0 | -9.6 | -6.1 | -3.7 | 5787
O=C(/C=C/c1cc2c(cc1Br)OCO2)NCc1ccc(F)cc1 | · | · | -1.8 | -4.6 | -24.5 | -7.1 | 2396

A few values from the list.
Cc1ccc(C)c(SCC(=O)Nc2ccc(C)c(S(=O)(=O)N3CCOCC3)c2)c1 – Sa ugtP lethal = -0.2
CC(C)OCCOc1ccc2oc(-c3ccco3)cc(=O)c2c1 – Mtb hypoxia rep growth = 8.0

Remaining list, next part.
SMILES | Mtb hypoxia rep | Mtb hypoxia rep growth | RN4220 kill | Sa ugtP lethal | PrP 5UTR inh | BJeLR viability | Autofluor counter
COCCOC(=O)c1c(C)oc2ccc(NS(=O)(=O)c3cccs3)cc12 | -0.7 | 3.6 | 9.6 | 9.3 | -12.3 | 5.7 | 4716
COc1ccc(-n2c(SCC(=O)Nc3ccc4c(c3)OCO4)nnc2C(C)N2CCCCC2)cc1 (stereo unspecified) | 1.4 | -1.5 | 1.9 | 5.4 | -6.6 | 3.1 | 6740
O=C(CN(Cc1cccs1)C(=O)CN1C(=O)COc2ccccc21)NCc1ccco1 | 2.5 | 14.3 | 1.2 | -4.9 | -0.2 | -3.7 | 19004*
Cc1c(C=O)c2ccccc2n1CC(=O)O | 7.4 | 3.7 | 1.9 | 0.7 | -23.1 | 8.6 | 4441
C=CCOC(=O)/C(=C\C=C\c1ccccc1)NC(=O)c1ccccc1 | 7.6 | 18.8 | 4.3 | 3.9 | -20.2 | -3.4 | 2315
O=C(NC1CCSc2ccccc21)c1ccc(Cl)c(S(=O)(=O)N2CCOCC2)c1 (stereo unspecified) | -0.1 | 2.9 | -3.2 | -2.7 | -29.0 | -7.3 | 5620
COc1ccc(OCCC(=O)OCC(=O)Nc2cccc(Br)c2)cc1 | 14.3 | 2.9 | 2.9 | 9.4 | -17.9 | 10.5 | 2505
CCCNC(=O)c1ccccc1NC(=O)c1ccc2c(=O)n3c(nc2c1)CCC3 | -6.7 | -5.4 | -1.5 | -0.4 | -10.5 | 1.4 | ?
COc1ccc(NS(=O)(=O)c2cccc(C(=O)NCCCN3CCOCC3)c2)cc1 | 8.3 | 1.0 | 0.7 | 3.8 | -5.1 | 5.5 | ?
S=C(Nc1cccc(Br)c1)c1ccccc1 | 9.8 | -2.8 | 8.5 | -12.8 | -25.6 | 2.2 | 2644
CC(=O)N1CCc2cc(S(=O)(=O)N3CCc4ccccc43)ccc21 | -3.1 | 7.8 | 10.5 | 0.5 | 0.3 | 5.4 | 5605
CCc1ccc(NC(=S)/N=C(\N)Nc2nc(C)c3cc(CC)ccc3n2)cc1 | -9.0 | -4.3 | 21.8 | 11.0 | -13.0 | -3.3 | 4847
Nc1ncnc2c1ncn2Cc1ccccc1 | 0.9 | 7.9 | -1.2 | 7.9 | -21.8 | 8.5 | 4259
Cc1cccc(NC(=O)c2cc(-c3cc(Cl)ccc3O)n[nH]2)c1 | 5.8 | 9.4 | -4.5 | 16.7 | -68.5 | 5.4 | 3520
Cc1ccc(C(=O)Nc2cccc(C(=O)NN=Cc3ccc(O)cc3)c2)cc1 | -5.2 | 11.1 | 1.9 | 1.1 | · | · | ·
COC(=O)c1ccc(CN2C(=O)NC3(CCCCC3C)C2=O)o1 (stereo unspecified) | 2.6 | 0.0 | 1.9 | -3.7 | -8.8 | 1.0 | 2816
Cc1cccc(C)c1OCC(=O)Nc1c(C)nn(C)c1C | 13.7 | 1.5 | 10.3 | 10.7 | -9.9 | 3.8 | 5644

High-throughput results deposited in PubChem by several laboratories.
